Six1-Eya2 inh: inhibitors of human Six1/Eya2 interaction | activity change, % (test concentration not listed) | AID 651725 | AlphaScreen GST-Six1/His-Eya2 binding, biochemical; active compounds read low; control for the full effect not named in the record | 360,000 compounds, 0.56% hits; in the data active = activity change below about -65%; inconclusive = about -30% to -65%; inactive = above about -30%; further: on the % scale 0 is the no-effect control and ±100 the full control effect
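Homogeneous AlphaScreen proximity assay pairing GST-Six1 with His-tagged Eya2 (added as 5X mix: 250 nM and 500 nM) in 50 mM Tris pH 8.0, 300 mM NaCl, 1 mM TCEP. Glutathione donor and nickel acceptor beads; 1 h, 37 °C, dark.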
D2 potentiator: potentiates the human D2 dopamine receptor allosterically; P14416; DiscoveRx D2 beta-arrestin cells, luminescence, 90 min; 100% = 57 uM dopamine signal; potentiation, % (concentration not given with the values); 360,000 compounds, 0.23% hits; active = potentiation of 50% or more; inconclusive = 30% to 50%; inactive = 30% or less;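 further: tested on top of an EC20 dose of dopamine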
Target sequence (P14416 whole entry, looked up): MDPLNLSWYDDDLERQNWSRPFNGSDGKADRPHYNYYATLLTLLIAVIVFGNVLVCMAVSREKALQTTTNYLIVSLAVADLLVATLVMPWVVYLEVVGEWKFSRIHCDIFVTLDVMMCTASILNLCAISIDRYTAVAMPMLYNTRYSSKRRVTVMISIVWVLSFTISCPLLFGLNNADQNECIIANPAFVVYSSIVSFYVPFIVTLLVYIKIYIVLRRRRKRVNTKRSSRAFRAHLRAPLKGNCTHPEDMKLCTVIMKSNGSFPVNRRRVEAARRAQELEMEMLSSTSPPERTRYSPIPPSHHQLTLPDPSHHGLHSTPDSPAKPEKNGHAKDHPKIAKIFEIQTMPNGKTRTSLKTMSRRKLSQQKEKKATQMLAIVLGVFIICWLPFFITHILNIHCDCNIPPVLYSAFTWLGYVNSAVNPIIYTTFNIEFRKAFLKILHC
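PathHunter beta-arrestin assay in DiscoveRx D2 cells. Compounds were added with an EC20 of dopamine (50 nM final) for 90 min at 37 deg C. Luminescence was read 1 h after detection reagent, with 57 uM dopamine as the EC100 control.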
D2 ag: human D2 receptor agonism in beta-arrestin assay; P14416; DiscoveRx PathHunter D2 beta-arrestin, luminescence, 90 min; 100% = 57 uM dopamine signal; activation, % (test concentration not listed); 360,000 compounds, 0.084% hits; AID 624465; in the data active = activation above about 40%; inconclusive = about 15% to 40%; inactive = below about 15%; further: compound concentration not given in the record; the text of the record calls up to 30% inactive
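DiscoveRx PathHunter D2 beta-arrestin cells (2,100/well) attached overnight, then compound-stimulated 90 min at 37 C in HBSS/10 mM HEPES/0.1% Tween-20 buffer; beta-galactosidase complementation read by luminescence after 1 h at ambient temperature. Dopamine 57 uM final (EC100) as control.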
gsp antagonist: antagonists of gsp mutant (McCune-Albright syndrome); Potency, µM (titrated, usually from 76.9 µM), inactives show at the top dose activity change, negative = inhibition, most hits filed as inhibitors; 340,000 compounds, 0.4% hits; gsp-mutant cells, cAMP HTRF, 30 min; control for the full effect not named in the record; active = falling curve of any shape with a large fitted effect; inconclusive = falling curve, mostly with a smaller effect; inactive = flat or rising curve; cell line not stated here;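 further: intracellular cAMP measured with PDE inhibitor Ro 20-1724 present during compound exposure; potency means the concentration at half of the fitted maximal effect; on the % scale 0 is the no-effect control and ±100 the full control effect; nearly all actives have a fitted effect of over 65% in size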
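Measurement of cellular cAMP by homogeneous time-resolved fluorescence following a 30 min compound exposure at 37C. The PDE inhibitor […] was present throughout; the assay buffer was DPBS with 0.05% BSA and 0.005% Tween 20.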
gsp ag: activates gsp, the McCune-Albright syndrome mutation | gsp mutant cells, cAMP HTRF, 30 min; control for the full effect not named in the record | Potency, µM (highest dose often 76.9 µM), without a hit: top-dose activation (cAMP increase), actives largely listed as activators | 340,000 compounds, 0.13% hits; active = well fitted activation curve with a large enough effect; inconclusive = small, poorly fitted or top-dose-only effect, or another doubt; inactive = no such curve, though single readings can be large or run the other way; cell line not stated here;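 further: phosphodiesterase inhibitor Ro 20-1724 added with compounds to block cAMP breakdown; potency means the concentration at half of the fitted maximal effect; nearly all actives have a fitted effect of over 60% in size; about a fifth of the inactives were tested at one dose only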
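Cells in DMEM/10% FBS with G418 were pretreated with compounds in DMSO plus […] (300 uM stock) for 30 min at 37C. cAMP was measured by HTRF (cAMP-d2 plus anti-cAMP antibody-K) after 30 min at room temperature.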
CtBP-E1A blk: blocks the CtBP interaction with E1A; AlphaScreen GST-E1A/His-CtBP binding, 1536-well; active compounds read low; control for the full effect not named in the record; activity change, % (test concentration not listed); 340,000 compounds, 0.49% hits; AID 651724; in the data active means activity change below about -65%; inconclusive means about -30% to -65%; inactive means above about -30%; further: on the % scale 0 is the no-effect control and ±100 the full control effect
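In 5 uL wells, 23 nL compound meets equimolar GST-E1A and His-CtBP (5X stock 125 nM each) for 2 h, 37 °C. Beads (5X, 50 ug/mL) then 1 h, 37 °C, dark.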
* = called active by the depositor; ? = inconclusive; . = not tested or not shown; [ ] = remark or other dose. Not a hit list, and some 1.4% of all compounds hit somewhere here.

Every second line gives: Six1-Eya2 inh | D2 potentiator | D2 ag | gsp antagonist | gsp ag | CtBP-E1A blk
CCCCOc1ccc(C(=O)NCCC(=O)NCCCC(=O)OCC)cc1
 : 2 | 0 | -2.1 | -16% | -2%[15.4 µM] | 5
COc1ccc(-c2noc(N3CCCC(C(=O)Nc4ccc(F)cc4F)C3)n2)cc1 (stereo not drawn)
 : -8 | -3 | -2.2 | -7% | 5% | -6
COc1ccc(NC(=O)c2cc(C3CCCCN3C(=O)c3cc(C(C)(C)C)nn3C)on2)c(C)c1 (stereo not drawn)
 : -7 | -4 | 3.1 | . | . | 1
CC1CCCCC1NC(=O)CN1CCN(Cc2ccccc2Cl)C1=O (stereo not drawn)
 : 12 | -10 | -3.5 | 1% | 8% | 5
COc1ccc(S(=O)(=O)Cc2ccc(C(=O)NC3CCCCC3)o2)cc1
 : 7 | -7 | 2.6 | 7% | 3% | .
Cc1nc(NCc2ccco2)c2c(C)c(C)sc2n1
 : -13 | -8 | 3.6 | -19% | 14% | 0
Cc1ccccc1CNS(=O)(=O)c1ccccc1[N+](=O)[O-]
 : -2 | 3 | 14 | 7% | -10%[15.4 µM] | .
COc1ccccc1-c1nnc2n1N=C(c1ccc(O)c(O)c1)CS2
 : -25 | 20 | -2.0 | 20% | -49%[inhibitor] | -29
CC(=O)c1c(-c2ccccc2)c2cc([N+](=O)[O-])ccc2[nH]c1=O
 : -1 | -23 | 0.5 | 5% | -34%[inhibitor] | .
CCn1c(SCC(=O)Nc2ccc(OCc3ccccc3)cc2)nnc1-c1ccco1
 : -11 | 14 | 1.2 | -15% | -7% | -19
COC(=O)c1cc(NS(=O)(=O)c2ccc(NCc3cccnc3)c(N)c2)cc(C(=O)OC)c1
 : -9 | 13 | 1.7 | -7% | -21% | -1
CC(=O)Nc1ccc(S(=O)(=O)N2CCC(C(=O)NCc3cccnc3)CC2)cc1
 : 2 | -6 | 0.4 | -2% | ? | -1
Cc1ccc(OCc2ccc(C(=O)NCC3CCCO3)cc2)cc1 (stereo not drawn)
 : 18 | -7 | -1.7 | 2% | -163%[inhibitor] | .
COc1ccc(C(=O)Cn2nnc(-c3ccccc3NC(=O)C3CCCCC3)n2)cc1
 : 0 | -10 | -2.1 | -1% | 17% | 1
C=CCn1c(C)nnc1SCC(=O)Nc1ccccc1C(=O)NC1CC1
 : 0 | 11 | -2.8 | 21% | -25% | 8

Every second line gives: Six1-Eya2 inh | D2 potentiator | D2 ag | gsp antagonist | gsp ag | CtBP-E1A blk
CC1CCCCN1C(=O)CN(C)S(=O)(=O)c1cccc2nsnc12 (stereo not drawn)
 : 4 | -9 | -0.2 | 11% | -42% | 4
c1ccc(CN2CCN(CCOCCOc3cccc4ccccc34)CC2)cc1
 : -4 | -6 | 0.6 | -24% | 25%[15.4 µM] | -14
CCN(CC(=O)Nc1ccc2c(c1)OCCO2)C(=O)CN1C(=O)NC(C)(c2ccc(C)cc2)C1=O (stereo not drawn)
 : 6 | -12 | -2.4 | -13% | -40%[inhibitor] | .
O=S(=O)(Cc1ccccc1)N1CCNCC1
 : 5 | -3 | 0.1 | 7% | 5% | -5
Cc1coc2c(C)c3oc(=O)c(CCC(=O)NCCC(=O)O)c(C)c3cc12
 : -16 | 0 | 0.7 | -7% | -1% | -15
COc1cc(F)ccc1S(=O)(=O)N1CCN(c2ccccc2)CC1
 : 8 | -13 | -0.4 | -11% | -4% | .
Cn1c(/N=C/c2ccccc2[N+](=O)[O-])nc2ccccc21
 : -9 | -1 | -1.2 | 5% | -6% | -2
CC(=O)c1ccc(OCc2cc(C(=O)N(C)Cc3ncc(C)[nH]3)no2)cc1
 : -2 | -24 | -3.7 | -3% | 0% | -4
COc1ccc(CCNc2ccc(C(=O)O)cc2[N+](=O)[O-])cc1OC
 : -6 | -14 | -4.0 | -22% | -1% | 0
COc1ccc(Br)c(OC)c1C(=O)NC(=O)Nc1nc(C)cc(C)n1
 : -16 | -4 | -5.0 | 6% | 4% | 10
Cc1n[nH]c(=O)c2c(NC(=O)CSc3nnc(-c4ccco4)n3C)oc(C)c12
 : -11 | -12 | -3.2 | -7% | ? | .
COCCNC(=O)Cc1c(C)c2c(cc(C)c3c(C(C)(C)C)coc32)oc1=O
 : -23 | -2 | 2.5 | -22% | 6%[15.4 µM] | -10
O=C(NCc1ccc2c(c1)OCO2)c1cc(F)c(F)cc1Cl
 : -6 | -7 | -2.6 | -9% | 7%[15.4 µM] | 1
C#CCNc1ccc([N+](=O)[O-])cc1
 : -1 | -9 | 1.2 | 16% | -2%[15.4 µM] | 2
COc1ccc(COc2ccc3c(C)cc(=O)oc3c2)cc1
 : 3 | 0 | -2.6 | -16% | -40%[inhibitor] | .

Every second line gives: Six1-Eya2 inh | D2 potentiator | D2 ag | gsp antagonist | gsp ag | CtBP-E1A blk
O=C(CCCOc1ccc(Br)cc1)NNC(=O)c1ccncc1
 : 8 | 7 | -1.6 | 2% | -3%[15.4 µM] | -1
Cc1ccc(OCC(=O)O/N=C(\N)c2ccccn2)cc1
 : -5 | -6 | -3.5 | 7% | 9%[15.4 µM] | -4
O=C(COc1ccc2c(c1)oc(=O)c1ccccc12)N[C@@H](Cc1c[nH]c2ccccc12)C(=O)O
 : -28 | -31 | -2.8 | 1% | . | ?
O=C(C[n+]1ccc(/C=N/O)cc1)NC(=O)Nc1ccccc1
 : -3 | -5 | -0.8 | 6% | -3% | 1
Cc1[nH]c2ccccc2c1C(=O)CNc1nccs1
 : 2 | -20 | -2.1 | 3% | ? | 3
COc1ccc(CCNC(=O)c2ccc(N(C)S(=O)(=O)c3ccc(C)cc3)cc2)cc1
 : -2 | -5 | 0.5 | -31% | 0%[15.4 µM] | 0
Cc1cc(C)c(NS(=O)(=O)c2ccc(Cl)c(C(=O)O)c2)c(C)c1
 : -1 | 5 | -2.4 | 5% | 13% | -5
CCN(CC)CCN(C(=O)c1ccc(C(C)=O)cc1)c1nc2ccc(Cl)cc2s1
 : 5 | -23 | -3.1 | 15% | -20% | 5
CCN(CC(=O)Nc1ccccc1C(F)(F)F)C(=O)Cc1ccc2c(c1)CCC2
 : 4 | -4 | -4.4 | 4% | 8% | .
Cc1cc(Br)c(OCC(=O)NN)c2c1CCC2
 : -2 | -8 | -3.4 | 9% | -1% | -13
CC(C)(Oc1cccc2ccccc12)C(=O)O
 : 8 | 1 | 3.7 | 4% | 12% | -3
CC1(C)Cc2c(c(=S)nc(-c3ccccc3)n2CCO)CO1
 : 0 | -15 | -1.2 | 13% | ? | -3
O=C(NCc1nnc(SCC(=O)N2CCCc3ccccc32)o1)c1c(F)cccc1Cl
 : -3 | -2 | -2.4 | -1% | ? | -2
CCOC(=O)C(CCc1nnc(N)s1)C(=O)OCC
 : -1 | 5 | -1.0 | -4% | -7% | 3
CC(=O)N1c2ccc(S(=O)(=O)NCCC(=O)Nc3ccc(OC(F)(F)F)cc3)cc2CC1C (stereo not drawn)
 : 2 | -12 | -3.8 | -10% | -48%[inhibitor] | -1

Every second line gives: Six1-Eya2 inh | D2 potentiator | D2 ag | gsp antagonist | gsp ag | CtBP-E1A blk
CCCOc1ccc(-c2csc(N)n2)cc1[N+](=O)[O-]
 : -21 | -13 | -3.4 | 0% | -37%[inhibitor] | 7
Cc1nc2ccccc2n1CC(=O)OCC(=O)NCCc1ccccc1
 : -2 | -11 | 0.7 | 7% | -4% | 1
CN(Cc1ccccc1)S(=O)(=O)c1cccc2nsnc12
 : -3 | -8 | 0.4 | -4% | 15%[15.4 µM] | -1
COc1ccccc1S(=O)(=O)Cc1ccc(C(=O)NCc2ccccc2)o1
 : 4 | 0 | -4.1 | 2% | -13% | 6
CC(=O)c1cccc(NC(=O)c2cc(-n3cnnc3)ccc2Cl)c1
 : -8 | -7 | -3.5 | 7% | -7% | 0
CC(NC(=O)c1cn(C(C)c2ccccc2F)nn1)c1ccncc1 (stereo not drawn)
 : -10 | -4 | -3.1 | 8% | 11% | -18
COC(=O)c1ccc(CNC(=O)C2CCC(=O)N(Cc3ccccn3)C2)cc1 (stereo not drawn)
 : 8 | -10 | 0.1 | 15% | 29% | -14
O=C(CNC(=O)Cc1ccccc1)NCC(=O)OCC(=O)c1cccc2ccccc12
 : 2 | -7 | -1.9 | -1% | -1% | 0
Nc1ccccc1OCCOc1ccccc1N
 : -6 | -6 | -3.7 | 15% | -7%[15.4 µM] | 3
COc1cccc(-c2ccc(NC(=O)C3CCCN(Cc4cnc(C)s4)C3)cc2)c1 (stereo not drawn)
 : -15 | -9 | 1.2 | -5% | -2% | -5
COc1ccc2nc(N/C(=N/S(=O)(=O)c3cccs3)c3ccccc3Cl)sc2c1
 : 2 | -3 | -1.3 | ? | ? | -5
Cc1ccc2nc(SCC(=O)Nc3cccc(Cl)c3)nc(=O)n2c1
 : -7 | -6 | 2.6 | -4% | ? | -2
O=C(c1ccccc1NS(=O)(=O)c1ccc2c(c1)OCCO2)N1CCOCC1
 : 1 | -5 | -1.9 | -4% | 4% | 14
C=CCOC(=O)COc1ccc2c(C)c(C)c(=O)oc2c1
 : 4 | 0 | -0.1 | -13% | 16% | -1
COC(=O)c1cnc(SCC(=O)c2ccccc2)n1C
 : 3 | 2 | 8.6 | 2% | ? | .

Every second line gives: Six1-Eya2 inh | D2 potentiator | D2 ag | gsp antagonist | gsp ag | CtBP-E1A blk
CCc1nc2c(OCCOC)cccn2c1N(C)C(=O)c1ccco1
 : 7 | -10 | -4.4 | . | . | 3
CC(=O)c1ccc(N2CCN(C(=O)CCS(=O)(=O)c3ccc(C)cc3)CC2)cc1
 : -7 | -4 | -0.4 | -11%[15.4 µM] | -39%[inhibitor] | -1
Cc1ccc(CC(=O)N2CCN(c3ccccc3F)CC2)cc1
 : -2 | -8 | -5.2 | 4% | -24% | .
COc1ccc(NC(=O)c2nc[nH]c2C(=O)N[C@@H](CC(C)C)C(=O)OC(C)(C)C)cc1
 : -5 | -15 | -2.9 | 2% | . | -7
O=C(NCc1ccccc1)C1COc2ccccc2O1 (stereo not drawn)
 : -3 | 5 | -6.3 | -12% | 0% | -3
O=C(Nc1ccc(C(=O)N2CCCCC2)cc1)C1=CSCCO1
 : -4 | -2 | -0.3 | -5% | -20% | .
COc1ccc(CC2(C)OC(c3ccncc3)=NN2C(C)=O)cc1 (stereo not drawn)
 : 13 | -3 | -2.4 | -17% | -8%[15.4 µM] | 3
O=C(Cc1ccccc1)NCC(=O)OCC(=O)c1ccc(Cl)c([N+](=O)[O-])c1
 : 3 | -36 | -19 | -5% | 7%[15.4 µM] | 8
CCC(=O)Nc1nnc(S(=O)(=O)N2CCCCCC2)s1
 : 9 | -5 | -0.9 | -7% | ? | -24
COc1ccc(NC(=O)C[C@H]2C(=O)N(C3CCCCC3)C[C@@H]2c2ccccc2)cc1
 : 0 | 1 | 0.6 | . | -72%[inhibitor] | 24
O=C(Nc1ccccc1C(F)(F)F)c1ccsc1
 : 3 | -3 | -4.9 | 5% | 23% | 14
O=C(Nc1ccc2c(c1)OCCO2)c1ccco1
 : 1 | 2 | 1.5 | 3% | -27% | 3

Source: PubChem BioAssay (National Center for Advancing Translational Sciences (NCATS))
